Source: PubChem BioAssay (ICCB-Longwood Screening Facility, Harvard Medical School)
Vaccinia pol inh: vaccinia E9 polymerase processive synthesis inhibition; in vitro processive DNA synthesis, absorbance read-out; stronger effect = lower value; some inactives read as strong as hits; normalized absorbance, % (test concentration not listed); hit rate 0.94% among 46,000; AID 493162;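 active = replicate mean up to 90% and picked by the depositor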;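 also: 100% = median of the test wells of a plate; 100 nL library stock went into each well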
* hit, by the source's call; & = joins results of further samples. Not all compounds are listed, so the mix of outcomes need not match the whole.

Start of the listing, in advance:
SMILES	Vaccinia pol inh
COC(CNC(=O)c1ccc(CNC(=O)c2cccc(Br)c2)cc1)OC	100
COC(=O)c1cc2cc(Br)ccc2c(Br)c1OC	98
COCc1nc2ccccc2n1Cc1ccc(F)cc1	110
Cc1ccc(C(=O)Nc2ccccc2N2CCCCC2)cc1	100
O=C(Nc1cccc(Cl)c1)c1cccc(NC(=O)C(F)(F)F)c1	99
O=C(O)C1C(c2ccccc2)C(C(=O)O)C1c1ccccc1 (stereo unspecified)	100

Results (from the top)
SMILES	Vaccinia pol inh
COC(CNC(=O)c1ccc(CNC(=O)c2cccc(Br)c2)cc1)OC	100
COC(=O)c1cc2cc(Br)ccc2c(Br)c1OC	98
COCc1nc2ccccc2n1Cc1ccc(F)cc1	110
Cc1ccc(C(=O)Nc2ccccc2N2CCCCC2)cc1	100
O=C(Nc1cccc(Cl)c1)c1cccc(NC(=O)C(F)(F)F)c1	99
O=C(O)C1C(c2ccccc2)C(C(=O)O)C1c1ccccc1 (stereo unspecified)	100
Cc1cc(Br)cc2c1N(C)C(=O)/C2=C1\SC(=Nc2ccc(F)cc2)NC1=O	100
C=C1OC(CO)(n2cnc3c(N)ncnc32)C(O)C1O (stereo unspecified)	100
CCc1ccc(NS(=O)(=O)c2ccc3c(c2)OCCN3C(C)=O)cc1	99
CC(C)(C)OC(=O)N1CCN(S(=O)(=O)c2ccc(-n3cnnn3)cc2)CC1	100
CC(C)c1ccccc1NC(=O)c1cc2ccccc2o1	100
COc1ccc(/C=N/C2=NNC(c3ccccc3)=CS2)cc1	100
Cc1nn(-c2nc3ccccc3[nH]2)c(N)c1-c1ccc(Cl)cc1	100
CC(SC(=S)N1CCCC1)C(=O)O (stereo unspecified)	100
CC(OC(=O)/C=C/c1ccco1)C(=O)Nc1cccc(Cl)c1 (stereo unspecified)	101
O=S(=O)(Cc1ccccc1)NCc1ccccc1	100
COC(=O)c1cc(S(=O)(=O)N2CCOCC2)cn1C	102
COC(=O)c1ccc(CN2CCN(Cc3ccc(C(=O)OC)o3)CC2)o1	99
CC1CCc2nc3ccc(S(=O)(=O)N4CCC(C(=O)N5CCCC5)CC4)cc3c(C(=O)O)c2C1 (stereo unspecified)	106
C=CCOc1cc2c(cc1C(C)c1ccc(OC)cc1)OCO2 (stereo unspecified)	100
CN(C)C(=O)Oc1nc(-c2ccc(Cl)cc2)cs1	92
Nc1nonc1-c1nc2ccccc2n1CC(=O)Nc1ccccc1	98
COc1ccc(N=Cc2ccc3ncccc3c2)cc1	90
CCOC(=O)Oc1cc(N)c(Cl)cc1Cl	96
Cc1ccc(N2C(=O)C(N3C(=O)CCC3=O)C2c2ccc(F)cc2)cc1 (stereo unspecified)	102

New compounds follow
SMILES	Vaccinia pol inh
Oc1c(C(Nc2ccc(F)cc2)c2ccncc2)ccc2cccnc12 (stereo unspecified)	100
Cc1ccc(C(C)NC(=O)c2c(-c3ccccc3Cl)noc2C)c(C)c1 (stereo unspecified)	111
Cc1ccccc1-c1nc(CS(=O)CC(=O)NC(C)C)c(C)o1 (stereo unspecified)	99
Cc1cc(NN)nc(SCC(=O)NN)n1	101
Cc1sc(/N=C/c2ccc(Cl)c(Cl)c2)c(C#N)c1C	100
CCOC(=O)c1[nH]c2ccccc2c1NC(=O)COc1ccccc1	100
CC1CN(/C(N)=N/S(=O)(=O)c2cc(C(F)(F)F)cc(C(F)(F)F)c2)CC(C)O1 (stereo unspecified)	98
CC(=O)Nc1ccc(/C=C2\CCc3ccccc3C2=O)cc1	100
CC(NCC(O)Cn1nnnc1-c1ccccc1)c1ccccc1 (stereo unspecified)	110
CN1/C(=C\C=Nc2cccc(C(=O)O)c2)C(C)(C)c2ccccc21	97
CC1(C)CC(=O)C2=C(C1)OC(N)=C(C#N)C21C(=O)N(CCc2ccccc2)c2ccccc21 (stereo unspecified)	98
COc1ccc(C[C@H]2NC[C@H](O)[C@H]2OC(C)=O)cc1	100
CC1Cc2ccccc2N1S(=O)(=O)c1ccc2nc(-c3ccccc3)[nH]c2c1 (stereo unspecified)	103
O=C(CSc1nc2ccccc2nc1SCC(=O)N1CCCCC1)N1CCCCC1	101
COc1cccc(OCC(=O)Nc2cccc(Cl)c2)c1	104
Cc1ccc(O)c(C(=O)CC(=O)c2cccs2)c1	93
Cn1c(-c2cc(Br)cs2)nc(=O)c2cc(Cl)ccc21	101
O=C(Nc1cc(Cl)ccc1Cl)c1cc(S(=O)(=O)NC2CCCC2)ccc1F	98
O=C1Nc2ccccc2C(O)(C(=O)NC2CC2)N1c1ccccc1 (stereo unspecified)	94
CC(=O)N1CCC(N(C(=O)Nc2ccccc2)C(C)C)CC1	107
CCN(CC)c1ccc2cc(C(=O)Nc3ccccc3)c(=O)oc2c1	100
CCOc1ccc(CCN2C(=O)C3C4C=CC(C4)C3C2=O)cc1OCC (stereo unspecified)	99
FC(F)(F)c1ccc(CSc2c[nH]c3ccccc23)cc1	100
CC[n+]1c(/C=C2\C=C(C)CC(C)(C)C2)oc2ccccc21	100
CN(C(=O)CSc1cc(=O)n(C)c2ccccc12)C1CCCCC1	94

Already shown: an excerpt of the list.
SMILES	Vaccinia pol inh
CC(=O)N1CCC(N(C(=O)Nc2ccccc2)C(C)C)CC1	107
CCN(CC)c1ccc2cc(C(=O)Nc3ccccc3)c(=O)oc2c1	100
CCOc1ccc(CCN2C(=O)C3C4C=CC(C4)C3C2=O)cc1OCC (stereo unspecified)	99
FC(F)(F)c1ccc(CSc2c[nH]c3ccccc23)cc1	100
CC[n+]1c(/C=C2\C=C(C)CC(C)(C)C2)oc2ccccc21	100
CN(C(=O)CSc1cc(=O)n(C)c2ccccc12)C1CCCCC1	94

(listing goes on)
SMILES	Vaccinia pol inh
Cc1ccc(OC(C)n2ccc3c2CCCC3)cc1 (stereo unspecified)	94
CC(=O)Nc1nonc1NC(=O)CSc1ncccn1	100
CCCCN1C(=O)/C(=C2/Sc3ccc(OC)cc3N2C)SC1=S	100
Cn1c(C(C#N)c2ncc(Cl)cc2Cl)nc2ccccc21 (stereo unspecified)	97
Cc1cc(NC(=O)c2ccc(-c3nc4ccccc4s3)s2)no1	97
CC(C)COC(=O)Cn1cnc2ccc(Br)cc2c1=O	100
O=C(CSc1nc2c(c(=O)n1-c1ccccc1)SCC2)Nc1ccccc1	100
COc1ccc(C=Nc2ccccc2Sc2ccccc2)cc1O	88
O=C(NC(Cc1ccccc1)C(=O)OCc1ccccc1)c1cccs1 (stereo unspecified)	95
O=c1c2c(nc3[nH]ncn13)CCN(Cc1ccccc1)C2	93
O=C(CSc1ncnc2ccccc12)Nc1cccc(F)c1	102
O=C(CSCc1cnn(-c2ccccc2)c1-n1cccc1)N1CCC(N2CCCCC2)CC1	111
Cc1cccc(C(=O)N2CCOCC2)c1	101
CC(=O)OC1C(c2ccccc2)=NN(C(C)=O)C1c1ccccc1 (stereo unspecified)	97
CC(=O)Nc1cc2c(cc1C(=O)c1ccc(Br)cc1)OCCO2	100
CC1CCc2[nH]nc(C(=O)O)c2C1 (stereo unspecified)	93
COc1ccccc1C(c1c(O)[nH]c(=S)[nH]c1=O)N(Cc1ccccc1)C(C)C (stereo unspecified)	102
COc1ccccc1CCN=Cc1ccnc(SCc2ccc(Cl)cc2Cl)n1	98
O=C(NC1CCCC1)N1CCC2(CC1)Oc1ccccc1C(=O)N2Cc1ccc(F)cc1	106
O=c1c(Oc2ccccc2)coc2cc(OCc3ccccc3)ccc12	100
CCc1cccc(NC(=O)OC2CCN(C)CC2)c1	100
Oc1ccccc1N=Cc1c(Cl)nc2sccn12	105
Clc1ccc(C=NCC2COc3ccccc3O2)cc1 (stereo unspecified)	100
CC(C)N1CCC(=O)N(c2ccccc2)C1=O	103
c1ccc2[nH]c(Nn3cnnc3)nc2c1	100

The last three records of the section above open the next one:
SMILES	Vaccinia pol inh
Clc1ccc(C=NCC2COc3ccccc3O2)cc1 (stereo unspecified)	100
CC(C)N1CCC(=O)N(c2ccccc2)C1=O	103
c1ccc2[nH]c(Nn3cnnc3)nc2c1	100
NC(=O)/C=C\c1cn(-c2ccccc2)nc1-c1ccc(F)cc1	101
c1csc(-c2nc3ccc4ccccc4c3c3c2CCC3)c1	98
Cc1ccc(N2C(=O)C(C=NCc3ccc(C(=O)O)cc3)C(=O)NC2=S)cc1 (stereo unspecified)	100
CC(=O)N(CN1C(=O)c2ccccc2C1=O)c1ccc2ccccc2c1	100
Oc1cc(C(F)(F)F)cc(C(F)(F)F)c1	98
COC(=O)C1C2C=CC3(CN(C(c4ccccc4)c4ccccc4)C(=O)C13)O2 (stereo unspecified)	101
Nc1nc(SCC(=O)N2CCCC2)[nH]c(=O)c1-c1ccccc1	96
COc1cccc(-c2cc(C(F)(F)F)nc(SC3CC(=O)C4OCC3O4)n2)c1 (stereo unspecified)	100
O=C(Cc1ccc(Cl)cc1)N1CCN(c2ccc(F)cc2)CC1	100
COc1ccc(C2=N/C(=C\c3ccco3)C(=O)O2)cc1	99
O=S(=O)(NCc1csc2ccc(Cl)cc12)c1cc(S(=O)(=O)c2ccccc2)cs1	106
CCCCN(CC)C(=O)c1sc2ncnc(N3CCN(c4ccc(OC)cc4)CC3)c2c1C	100
CC(C)(C)n1nc2c(c1NC(=O)/C=C/c1ccccc1)CSC2	100
Cc1ccc(-c2ccc(N)cc2)cc1	93
COc1ccc(-c2nc3n(c2N)CCS3)cc1	99
CC(C)(Oc1ccc(Cl)cc1)C(=O)OCCN1CCCC1=O	84
S=c1[nH]nc(-c2ccncc2)n1Cc1ccccc1	97
NC1=NC(=Nc2ccccc2)c2ccccc21	102
O=C(CCCOc1ccc(Cl)cc1)N1CCCCCC1	104
O=C(O)C1C2C=CC(C2)C1C(=O)NCc1ccc2c(c1)OCO2 (stereo unspecified)	100
CC(=O)OCC(=O)[C@@]1(O)CCC2C3CCC4CC(=O)CCC4(C)C3CCC21C (stereo partly specified)	96
O=C(Nc1ccc(-c2nc3ccccc3o2)cc1)C1=COCCO1	110
CCOC(=O)N1CCC(NC(=O)c2nn(-c3ccc(C)cc3)c(=O)c3c2c2ccccc2n3C)CC1	98
Cc1nc2c(C(=O)N3CCC4(CC3)OCCO4)c[nH]n2c(=O)c1Cc1ccccc1Cl	96
O=C(NC1CCCC1)C1COc2ccccc2O1 (stereo unspecified)	101

Next section:
SMILES	Vaccinia pol inh
CC(=O)Oc1ccc(N(C(C)=O)S(=O)(=O)c2cccs2)cc1	96
Cc1cc(=O)n2c3c(sc2n1)C(=O)N(Cc1ccccc1)C3=O	101
Cc1ccc(Cn2c(C(C)O)nc3ccccc32)cc1 (stereo unspecified)	101
COc1ccccc1OCCNC(=O)c1ccc(S(=O)(=O)N(C)C)cc1	100
CC(C)(C)c1ccc(C(=O)Nc2n[nH]c(C(F)(F)F)n2)cc1	94
Cc1nc2c(cc1C(=O)NN)c(=O)n(C)c(=O)n2C	100
CC(Sc1ncnc2nc[nH]c12)c1ccccc1Cl (stereo unspecified)	100
Clc1ccc2nc(CN3CCCCC3)cn2c1	106
Cn1nc(SCC(=O)N2c3ccccc3CCc3ccccc32)sc1=S	100
CCC(C)NC(=O)c1cccc2c1SCCC2=O (stereo unspecified)	107
CCOc1ccc2cc(S(=O)(=O)N3CCN(C)CC3)ccc2c1	99
Cc1[nH]n(-c2ccccc2)c(=O)c1CCC#N	100
O=S(=O)(c1cccs1)N1CCOCC1	100
O=C(Nc1ccccc1)N1CCC(n2c(=O)[nH]c3ccccc32)CC1	107
CN1C(=O)SC(Cc2ccc(N)cc2)C1=O (stereo unspecified)	114
O=C(COc1ccccc1OC(=O)c1ccc(Cl)cc1)NCc1ccccc1Cl	83
O=C(CN1C(=O)CSc2cc(S(=O)(=O)N3CCCC3)ccc21)NC1CCCCCC1	94
CC(NC(=O)Cn1ncc2ccsc2c1=O)C12CC3CC(CC(C3)C1)C2 (stereo unspecified)	86
COc1ccccc1NC1(C#N)CCCCC1	101
NC(=O)C1CCN(C(=O)c2cccc3ccccc23)CC1	99
Nn1c(SCc2ccccc2)nc2ccccc21	101
CCN(c1ccccc1)S(=O)(=O)c1ccc2c(c1)OCCN2C(C)=O	89
COC(=O)C(Cc1ccc(O)cc1)NC(=O)c1ccccc1OC (stereo unspecified)	96
CN(C)CC1CCCCC1=O (stereo unspecified)	98
O=C1CC(=O)CC(c2ccc(F)cc2)C1	95

(list continues)
SMILES	Vaccinia pol inh
Cc1ccc(/C=C2/SC(=O)N(CCC(=O)O)C2=O)cc1	99
CC1=C/C(=C/N(C)c2ccccc2)C(=O)S1	100
N#C/C(=C\c1cccs1)c1csc2ccc(Cl)cc12	111
CN1C/C(=C\c2cc(Br)cs2)C(=O)/C(=C/c2cc(Br)cs2)C1	107
Cc1ccc(OCC(O)CN2CCC(C)CC2)c(C)c1 (stereo unspecified)	100
CCCC1C2C(=O)N(c3ccccc3)C(=O)C2ON1c1ccc(Cl)c(Cl)c1 (stereo unspecified)	98
CC(=O)Oc1ccc2c(=O)c(-c3nc4ccccc4s3)c(C)oc2c1	101
O=C(Nc1ccc(Cc2ccc(NC(=O)C3CC3)cc2)cc1)C1CC1	100
Cc1cc(OC(=O)NC(=O)C(F)(F)F)c(C(C)C)cc1I	97
Cc1ccc2c(cnn2C(=O)CCCC(=O)NC2CCCC2)c1	95
CSc1nc(-c2ccccc2)cn1-c1cccc(Cl)c1	91
CCOc1ccc(C2C3=C(CCCC3=O)NC3=C2C(=O)CCC3)cc1	100
O=C(O)C1Cc2[nH]cnc2C(c2ccccc2)N1 (stereo unspecified)	102&103
O=C1CC(N2CCSC2=S)C(=O)N1c1cccc(Cl)c1Cl (stereo unspecified)	103
COc1ccc(CCNS(=O)(=O)c2ccc3[nH]c(=O)ccc3c2)cc1OC	93
CCn1cc(CCCC(=O)NCc2cc(Br)ccc2OC)c2ccccc21	99
Cc1nnsc1C(=O)Nc1cccnc1	108
O=C(C1=COCCO1)N1c2ccccc2Sc2ccccc21	101
CCOC(=O)C1=C(CNCc2ccccc2)NC(=O)NC1c1ccccc1 (stereo unspecified)	98
O=c1[nH]c(-c2cccc(Cl)c2)nc2ccc(N3CCCC3)cc12	110
C(=NC1CC1)c1ccc(-c2ccccc2)cc1	92
Fc1ccccc1-c1cn2ccsc2n1	98
